ClpP mod – qHTS Assay for Activators of ClpP; 340,000 compounds, 1.9% hits; ATP-dependent Clp protease proteolytic subunit (Bacillus subtilis (strain 168)), P80244; Potency, µM (doses to about 57.5 µM), for the others: top-dose activity change, negative = active; purified B. subtilis ClpP, FRET peptide cleavage, 20 min; AID 651965, 2013; active = well fitted falling curve with a large enough effect; inconclusive = small, poorly fitted or top-dose-only effect; inactive = no such curve, though single readings can be large or run the other way; also: potency is read from the fitted curve at half-maximal effect; the source files actives as falling curves though it sought activators and does not explain the sign; nearly all actives have a fitted effect of over 65% in size; many hits overshoot -100%
Target sequence (P80244 whole entry, looked up): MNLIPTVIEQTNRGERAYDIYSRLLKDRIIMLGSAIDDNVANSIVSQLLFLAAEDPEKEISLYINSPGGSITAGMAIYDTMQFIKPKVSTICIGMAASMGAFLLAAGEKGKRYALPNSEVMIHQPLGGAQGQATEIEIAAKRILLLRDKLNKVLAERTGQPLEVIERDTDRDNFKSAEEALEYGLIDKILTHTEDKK
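Purified B. subtilis ClpP, 10 microg/mL final in Tris/HCl pH8 with KCl, BSA, glycerol and Tween-20, cleaved an Abz/nitrotyrosine-quenched decapeptide. Fluorescence (ex 320, em 430) was read at 0 and 20 min at room temperature. Delta was normalized to 5.8 microM ADEP and DMSO/no-enzyme controls.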
Sfp PPTase inh – inhibitors of Bacillus subtilis Sfp phosphopantetheinyl transferase | Q9F4F7 | Biochemical Sfp PPTase activity, qHTS | Potency, µM, inactives show max response, negative = inhibition, most hits filed as inhibitors | 310,000 compounds, 3.5% hits | AID 1490; active = well fitted inhibition curve with a large enough effect; inconclusive = small, poorly fitted or top-dose-only effect, or another doubt; inactive = no such curve, though single readings can be large or run the other way;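 also: the enzyme is Sfp with the accession as filed and its product quenches rhodamine fluorescence; potency is read from the fitted curve at half-maximal effect; 0% = enzyme reaction without inhibitor and -100% = no enzyme wells; top concentration of the series not given in the record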
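Reaction rates are the 30-min fluorescence difference (ex 525, em 598 nm) in wells containing 15 nM Sfp, 5 uM rhodamine-CoA and 12.5 uM BHQ-2-YbbR at pH 7.6 with 10 mM MgCl2.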
TRPV1 PAM – human TRPV1 potentiation. TRPV1-expressing cells, Fluo-8 calcium influx, capsaicin EC20 potentiation; host cell line not named in the record; control for the full effect not named in the record. potentiation, % at 8.33 µM. 320,000 compounds, 0.02% hits. AID 540277; active means potentiation above 80%; inconclusive means 30% to 80%; inactive means below 30%; also: 0% is about no effect
Target sequence (Q8NER1 whole entry, looked up): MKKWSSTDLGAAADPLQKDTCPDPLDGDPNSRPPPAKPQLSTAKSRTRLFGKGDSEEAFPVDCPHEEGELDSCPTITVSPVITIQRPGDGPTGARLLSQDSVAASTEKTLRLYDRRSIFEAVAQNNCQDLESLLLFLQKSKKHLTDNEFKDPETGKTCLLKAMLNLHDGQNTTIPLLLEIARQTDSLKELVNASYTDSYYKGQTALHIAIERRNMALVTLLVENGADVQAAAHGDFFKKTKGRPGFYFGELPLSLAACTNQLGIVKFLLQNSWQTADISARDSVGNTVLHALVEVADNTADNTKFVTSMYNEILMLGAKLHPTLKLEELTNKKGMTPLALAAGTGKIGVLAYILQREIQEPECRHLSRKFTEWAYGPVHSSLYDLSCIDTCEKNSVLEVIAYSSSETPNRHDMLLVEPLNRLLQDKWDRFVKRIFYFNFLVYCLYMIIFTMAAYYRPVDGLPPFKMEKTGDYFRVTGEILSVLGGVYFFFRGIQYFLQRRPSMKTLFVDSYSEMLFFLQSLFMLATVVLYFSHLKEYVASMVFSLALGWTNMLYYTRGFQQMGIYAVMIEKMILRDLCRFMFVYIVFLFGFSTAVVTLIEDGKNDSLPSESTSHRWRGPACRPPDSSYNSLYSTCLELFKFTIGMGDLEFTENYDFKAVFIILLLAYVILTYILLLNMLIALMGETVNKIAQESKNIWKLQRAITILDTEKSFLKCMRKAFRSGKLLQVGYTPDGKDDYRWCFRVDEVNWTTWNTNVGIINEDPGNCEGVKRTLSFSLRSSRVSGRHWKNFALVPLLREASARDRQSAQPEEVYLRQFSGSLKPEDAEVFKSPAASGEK
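Fluo-8 calcium influx in TRPV1-expressing cells, kinetic read (ex 480/em 520 nm). Compound added and read 3 min for agonist activity, followed by capsaicin at EC20 final and 2 min further read for enhancement.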
gsp agonist – activates gsp, the McCune-Albright syndrome mutation; AID 624287; 340,000 compounds, 0.13% hits; Potency, µM (top dose mostly 76.9 µM), for the others: at the highest dose activation (cAMP increase), most hits filed as activators; gsp mutant cells, cAMP HTRF, 30 min; control for the full effect not named in the record; active = well fitted activation curve with a large enough effect; inconclusive = small, poorly fitted or top-dose-only effect, or another doubt; inactive = no such curve, though single readings can be large or run the other way; cell line not stated here;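 also: phosphodiesterase inhibitor Ro 20-1724 added with compounds to block cAMP breakdown; potency is read from the fitted curve at half-maximal effect; nearly all actives have a fitted effect of over 60% in size; about a fifth of the inactives were tested at one dose only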
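Cells in DMEM/10% FBS with G418 were pretreated with compounds in DMSO plus […] (300 uM stock) for 30 min at 37C. cAMP was measured by HTRF (cAMP-d2 plus anti-cAMP antibody-K) after 30 min at room temperature.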
Menin MLL FP FL – inhibitors of human menin-MLL interaction, wild-type MLL peptide. Fluorescence polarization, fluorescein-MLL peptide displacement from menin. FP activity change, % at 61.4 µM. 290,000 tested, under 10 active; inconclusive = falling polarisation curve, or a change in total fluorescence; inactive = total fluorescence flat and polarisation flat or rising; no compound was filed as active; the % refers to the polarisation; negative = inhibition;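 also: % of control where 0% means no effect; inhibitors lower the polarisation; unlabelled MLL peptide was the positive control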
gsp antagonist – gsp mutant antagonism | gsp-mutant cells, cAMP HTRF, 30 min; control for the full effect not named in the record | Potency, µM (series often up to 76.9 µM), for inactives: at the top dose activity change, negative = inhibition, most hits filed as inhibitors | 340,000 compounds, 0.4% hits | AID 624288; active = falling curve of any shape with a large fitted effect; inconclusive = falling curve, mostly with a smaller effect; inactive = flat or rising curve; cell line not stated here;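 also: intracellular cAMP measured with PDE inhibitor Ro 20-1724 present during compound exposure; potency is read from the fitted curve at half-maximal effect; % is scaled to controls: 0 for no effect and ±100 for the full control effect; nearly all actives have a fitted effect of over 65% in size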
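Measurement of cellular cAMP by homogeneous time-resolved fluorescence following a 30 min compound exposure at 37C. The PDE inhibitor […] was present throughout; the assay buffer was DPBS with 0.05% BSA and 0.005% Tween 20.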
TRPML1 blocker – inhibitors of human TRPML1 channel; 390,000 compounds, 0.02% hits; TRPML1-inducible cells, Ca2+ dye fluorescence, FDSS; active compounds read low; inhibition of EC80 agonist-evoked calcium signal; Q9GZU1; activity change, negative = inhibition, % (concentration not given with the values); in the data active means activity change below about -50%; inconclusive means about -30% to -50%; inactive means above about -30%;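 also: stimulus is agonist 54-4 at its EC80 concentration; % is scaled to controls: 0 for no effect and ±100 for the full control effect; the text of the record puts the active cut at -80%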
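Tet-induced TRPML1-DL cells loaded with Ca8 no-wash calcium dye were read kinetically on FDSS. Compound addition was followed by EC80 agonist 54-4 (4 uM final); inhibition was read over 110 s.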
Active calls of the source: *; & = joins results of further samples; [ ] = dose if it differs, or a comment.

Screening COc1ccc(S(=O)(=O)NCc2ccccn2)cc1Cl returned ClpP mod 0.9%, Sfp PPTase inh -23%, TRPV1 PAM 7, gsp agonist -1%, Menin MLL FP FL 0.5, gsp antagonist -5% and TRPML1 blocker 19.
`Cc1cc(C2=NNC(=NCCc3ccccc3)SC2)c(C)n1CC1CCCO1` (stereo not given) gave Sfp PPTase inh 50µM*, TRPV1 PAM -3, gsp agonist 8%[15.4 µM], Menin MLL FP FL 2.1, gsp antagonist -9% and TRPML1 blocker -4.
For COc1ccc(Oc2c(C(F)(F)F)oc3cc(OCC(=O)O)ccc3c2=O)cc1 the results were ClpP mod -0.7%, Sfp PPTase inh 19%, TRPV1 PAM -3, gsp agonist -3%, Menin MLL FP FL 0.1, gsp antagonist 11% and TRPML1 blocker -10.
O=C(/C=C/c1ccccc1)NCCc1ccc2c(c1)OCCO2 was read as ClpP mod -2.1%, Sfp PPTase inh -2%, TRPV1 PAM 0, gsp agonist 1%[15.4 µM], Menin MLL FP FL -5.8, gsp antagonist -5% and TRPML1 blocker -10.
For COc1cccc(C(=O)Nc2ccc(N(C)C)cc2)c1OC the results were ClpP mod 0.1%, Sfp PPTase inh 1%, TRPV1 PAM -9, gsp agonist -35%[inhibitor], Menin MLL FP FL 2.3, gsp antagonist -27% and TRPML1 blocker 27.
CCOC(=O)c1ccc(NC(=O)CN2C(=O)CSCC2=O)cc1 was read as ClpP mod 0.1%, Sfp PPTase inh inconclusive, TRPV1 PAM 30, gsp agonist -9%, Menin MLL FP FL -1.2, gsp antagonist 2% and TRPML1 blocker 3.
`COc1ccc(OC)c(CN2CCN(S(=O)(=O)c3ccccc3)CC2)c1` gave ClpP mod 0.9%&-11%, gsp agonist 1%[15.4 µM], gsp antagonist 4% and TRPML1 blocker 11&-2.
Cc1ccc(CN(C)C[C@@H]2OCc3cnnn3CCCC(=O)N([C@H](C)CO)C[C@H]2C)cc1 was read as ClpP mod -1.9%, gsp agonist -37%[inhibitor] and TRPML1 blocker -10.
For S=c1[nH]cc(-c2ccc(Cl)cc2)n1-c1ccccc1 the results were ClpP mod -3.1%, Sfp PPTase inh -2%, TRPV1 PAM -33, gsp agonist 0%, gsp antagonist -8% and TRPML1 blocker -1.
For CCOC(=O)c1c(S(=O)(=O)NCC(=O)Nc2cc(C)ccn2)c(C)n(C)c1C the results were ClpP mod -4.3%, Sfp PPTase inh 1%, TRPV1 PAM 1, gsp agonist -20%, Menin MLL FP FL -5.9, gsp antagonist 9% and TRPML1 blocker -5.
For O=C(O)C1CCN(C(=O)c2ccccc2C(=O)N2CCC(C(=O)O)CC2)CC1 the results were ClpP mod -0.4%, Sfp PPTase inh -6%, TRPV1 PAM -11, gsp agonist -30%, Menin MLL FP FL 3.0, gsp antagonist 0% and TRPML1 blocker 5.
Screening CC(=O)C1=C(O)C(=O)N(CCN2CCOCC2)C1c1ccc(N(C)C)cc1 (stereo not given) returned ClpP mod -0.7%, gsp agonist 3%, gsp antagonist 2% and TRPML1 blocker 8.
For C#CCOCCOCCOCCNc1nc(N2CCN(C(=O)[C@H]([C@@H](C)O)n3cc(CCCCN)nn3)CC2)nc(N2CCN(C(=O)[C@H](CCCCN)n3cc(CCCC)nn3)CC2)n1 the results were ClpP mod 2.3%, TRPV1 PAM 19, gsp antagonist 11% and TRPML1 blocker -7.
`O=S1(=O)OCCC(c2ccccc2)N1Cc1ccccc1` (stereo not given) gave ClpP mod -0.5%, Sfp PPTase inh 6%, TRPV1 PAM -9, Menin MLL FP FL 7.8, gsp antagonist 7% and TRPML1 blocker 22.
Screening Cc1ccsc1C1NC(=O)c2ccccc2N1 (stereo not given) returned ClpP mod 16µM*, Sfp PPTase inh 5%, TRPV1 PAM -5, gsp agonist -23%, Menin MLL FP FL 4.3, gsp antagonist 11% and TRPML1 blocker -10.
Screening Cc1ccc(CNc2ccc3c(c2)ncn3C(C)(C)C)cc1 returned ClpP mod 3.4%, Sfp PPTase inh -10%, TRPV1 PAM -21, gsp agonist 39%, Menin MLL FP FL -3.3 and gsp antagonist -6%.
Screening CC1(C)N=C(N)N=C(N)N1c1ccc(CCCCc2ccccc2)cc1 returned ClpP mod 1.6%, gsp agonist 6% and TRPML1 blocker 11.
Screening CC(=O)NC12CC3CC(C1)CC(C(=O)OCC(=O)NC(=O)c1cccn1C)(C3)C2 returned ClpP mod 1.4%, Sfp PPTase inh 14%, TRPV1 PAM 2, gsp agonist 0%, Menin MLL FP FL 4.7, gsp antagonist -10% and TRPML1 blocker -19.
`CN(C)C(=O)c1ccc(NC(=O)c2cc(-c3ccco3)nc3ccccc23)cc1` gave ClpP mod inconclusive, Sfp PPTase inh 21%, TRPV1 PAM -9, gsp agonist -1%, gsp antagonist -16% and TRPML1 blocker 1.
CNC(=S)N1CCc2ccccc2C1 was read as ClpP mod -3.3%, Sfp PPTase inh -7%, TRPV1 PAM -2, gsp agonist 17%, Menin MLL FP FL -2.0, gsp antagonist 20% and TRPML1 blocker 1.
Cc1cccc(OCC(=O)OC(C)CN2CCCCC2)c1 (stereo not given) was read as ClpP mod 1.2%, Sfp PPTase inh -3%, TRPV1 PAM 4, gsp agonist -11%, Menin MLL FP FL -5.7, gsp antagonist 10% and TRPML1 blocker 1.
Cc1ccc(-n2ncc3c2CCCC3NC(=O)CCCN2CCCCC2=O)cc1C (stereo not given) was read as ClpP mod -1.7%, Sfp PPTase inh 9%, TRPV1 PAM -7, gsp agonist 2%, gsp antagonist 7% and TRPML1 blocker 18.
`O=S(=O)(Nc1ccncc1)c1cc(Cl)ccc1Cl` gave ClpP mod -0.6%, Sfp PPTase inh 11%, TRPV1 PAM 10, gsp agonist 1%, Menin MLL FP FL -2.3, gsp antagonist -2% and TRPML1 blocker -1.
`C=CCn1c(SCc2c(C)noc2C)nc2sc3c(c2c1=O)CCC(C)C3` (stereo not given) gave ClpP mod 0.3%, Sfp PPTase inh -24%, TRPV1 PAM -5, gsp agonist 23%, Menin MLL FP FL -0.8, gsp antagonist -4% and TRPML1 blocker 5.
Screening CCCC(=O)Nc1cc(C)c(NC(=O)c2ccco2)cn1 returned ClpP mod -1.7%, Sfp PPTase inh 1%, TRPV1 PAM -10, gsp agonist 0%[15.4 µM], Menin MLL FP FL -0.6, gsp antagonist -4% and TRPML1 blocker 1.
Cc1cccc(NS(=O)(=O)c2ccc(C)c(C(=O)N(C)C3CCN(C)CC3)c2)c1 was read as ClpP mod 0.4%, TRPV1 PAM -1, gsp agonist -34%[inhibitor], gsp antagonist 6% and TRPML1 blocker -4.
Screening Cc1ccc(-c2noc(CN3CCC(C(N)=O)CC3)n2)cc1 returned ClpP mod -0.5%, Sfp PPTase inh 4%, TRPV1 PAM 11, gsp agonist 9%[15.4 µM], Menin MLL FP FL 0.2, gsp antagonist 9% and TRPML1 blocker 22.
CC(C)(C)OC(=O)N1CCC(NC(=O)c2nc[nH]c2C(=O)NCC(=O)OCc2ccccc2)CC1 was read as ClpP mod -1.6%, Sfp PPTase inh 10%, TRPV1 PAM -10, gsp agonist -28%, Menin MLL FP FL -1.1, gsp antagonist -19% and TRPML1 blocker 15.
For O=S(=O)(NN=C1CCCCCC1)c1ccc(Cl)cc1 the results were ClpP mod -2.3%, Sfp PPTase inh 22%, TRPV1 PAM 0, gsp agonist inconclusive, gsp antagonist -4% and TRPML1 blocker 3.
COCc1[nH]nc2c1C1(C(=O)N(C)c3ccccc31)C(C#N)=C(N)O2 (stereo not given) was read as ClpP mod 0.5%, Sfp PPTase inh 12%, TRPV1 PAM 2, gsp agonist 16%, Menin MLL FP FL 1.2, gsp antagonist 23% and TRPML1 blocker -9.
Screening O=C(NCc1ccc2c(c1)OCO2)c1c(O)nc2sccn2c1=O returned ClpP mod -1.8%, TRPV1 PAM 17, gsp agonist 13%, gsp antagonist -12% and TRPML1 blocker 16.
For c1coc(C2OCC3(CO2)COC(c2ccco2)OC3)c1 (stereo not given) the results were ClpP mod -1.5%, Sfp PPTase inh 4%, TRPV1 PAM 6, gsp agonist -22%[15.4 µM], Menin MLL FP FL -0.4, gsp antagonist 7% and TRPML1 blocker -28.
`C[C@@H]1CN([C@H](C)CO)C(=O)c2cc(-c3ccc(C(=O)N(C)C)cc3)cnc2O[C@@H]1CN(C)C(=O)c1cccnc1` gave ClpP mod -22%, gsp agonist 3% and TRPML1 blocker -2.
For COc1ccc(/C=N/n2c(SC)nnc2-c2ccccc2)cc1C the results were ClpP mod -0.2%, Sfp PPTase inh -27%, TRPV1 PAM -14, gsp agonist -1%, Menin MLL FP FL 3.8, gsp antagonist -3% and TRPML1 blocker 44.
`O=C(c1ccc2nc(N3CCOCC3)sc2c1)N1CCCC1` gave ClpP mod -2.9%, Sfp PPTase inh 23%, TRPV1 PAM 5, gsp agonist 13%, Menin MLL FP FL 1.8, gsp antagonist 6% and TRPML1 blocker -8.
Screening CCCCN(C)C(=O)C1CCCN(S(=O)(=O)c2ccc3c(c2)oc(=O)n3C)C1 (stereo not given) returned ClpP mod 0.6%, Sfp PPTase inh 8%, TRPV1 PAM -34, gsp agonist 24%, Menin MLL FP FL 4.3, gsp antagonist 2% and TRPML1 blocker 1.
For Cc1ccc(C(=O)CSc2n[nH]c(-c3ccco3)n2)cc1C the results were ClpP mod -0.5%, Sfp PPTase inh 15%, TRPV1 PAM -3, gsp agonist 26%, Menin MLL FP FL 3.5, gsp antagonist -11% and TRPML1 blocker 7.
Screening COc1cc(/C=C2\C(=N)N3N=C(S(C)(=O)=O)SC3=NC2=O)ccc1OCCOc1ccccc1C returned ClpP mod 0.2%, Sfp PPTase inh inconclusive, TRPV1 PAM inconclusive, gsp agonist -11%[15.4 µM], Menin MLL FP FL -11, gsp antagonist -23% and TRPML1 blocker -5.
`N#CC(C(N)=O)=C1CCCCC1` gave Sfp PPTase inh -4%, TRPV1 PAM -8, gsp agonist 6%[15.4 µM], Menin MLL FP FL -0.6, gsp antagonist 11% and TRPML1 blocker 7.

Compounds as they come; overall some 4.9% were active at least once.
